CtBP-E1A inh = blocks the CtBP interaction with E1A; hit rate 0.49% among 340,000; activity change, % (test concentration not listed); AlphaScreen GST-E1A/His-CtBP binding, 1536-well; hits give low values; control for the full effect not named in the record; in the data active means activity change below about -65%; inconclusive means about -30% to -65%; inactive means above about -30%; note: % is set by controls: 0 for no effect and ±100 for the full control effect; compound concentration not given in the record
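In 5 uL wells, 23 nL compound meets equimolar GST-E1A and His-CtBP (5X stock 125 nM each) for 2 h, 37 °C. Beads (5X, 50 ug/mL) then 1 h, 37 °C, dark.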
Menin MLL FP FL = inhibitors of human menin-MLL interaction, wild-type MLL peptide; Fluorescence polarization, fluorescein-MLL peptide displacement from menin; FP activity change, % at 61.4 µM; 290,000 tested, under 10 active; inconclusive = falling polarisation curve, or a change in total fluorescence; inactive = total fluorescence flat and polarisation flat or rising; no compound was filed as active; the % refers to the polarisation; negative = inhibition;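 note: % of control where 0% means no effect; inhibitors lower the polarisation; unlabelled MLL peptide was the positive control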
gsp antag = gsp mutant antagonism; hit rate 0.4% among 340,000; gsp-mutant cells, cAMP HTRF, 30 min; control for the full effect not named in the record; AID 624288; Potency, µM (doses to about 76.9 µM), without a hit: at the highest dose activity change, negative = inhibition, usual class: inhibitors; active = falling curve of any shape with a large fitted effect; inconclusive = falling curve, mostly with a smaller effect; inactive = flat or rising curve; cell line not stated here;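 note: intracellular cAMP measured with PDE inhibitor Ro 20-1724 present during compound exposure; potency is the fitted concentration of half-maximal effect; % is set by controls: 0 for no effect and ±100 for the full control effect; nearly all actives have a fitted effect of over 65% in size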
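Measurement of cellular cAMP by homogeneous time-resolved fluorescence following a 30 min compound exposure at 37C. The PDE inhibitor […] was present throughout; the assay buffer was DPBS with 0.05% BSA and 0.005% Tween 20.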
TRPV1 potentiator = human TRPV1 potentiation. TRPV1-expressing cells, Fluo-8 calcium influx, capsaicin EC20 potentiation; host cell line not named in the record; control for the full effect not named in the record. potentiation, % at 8.33 µM. Q8NER1. hit rate 0.02% among 320,000; active means potentiation above 80%; inconclusive means 30% to 80%; inactive means below 30%; note: 0% is about no effect
Target sequence (Q8NER1 whole entry, looked up): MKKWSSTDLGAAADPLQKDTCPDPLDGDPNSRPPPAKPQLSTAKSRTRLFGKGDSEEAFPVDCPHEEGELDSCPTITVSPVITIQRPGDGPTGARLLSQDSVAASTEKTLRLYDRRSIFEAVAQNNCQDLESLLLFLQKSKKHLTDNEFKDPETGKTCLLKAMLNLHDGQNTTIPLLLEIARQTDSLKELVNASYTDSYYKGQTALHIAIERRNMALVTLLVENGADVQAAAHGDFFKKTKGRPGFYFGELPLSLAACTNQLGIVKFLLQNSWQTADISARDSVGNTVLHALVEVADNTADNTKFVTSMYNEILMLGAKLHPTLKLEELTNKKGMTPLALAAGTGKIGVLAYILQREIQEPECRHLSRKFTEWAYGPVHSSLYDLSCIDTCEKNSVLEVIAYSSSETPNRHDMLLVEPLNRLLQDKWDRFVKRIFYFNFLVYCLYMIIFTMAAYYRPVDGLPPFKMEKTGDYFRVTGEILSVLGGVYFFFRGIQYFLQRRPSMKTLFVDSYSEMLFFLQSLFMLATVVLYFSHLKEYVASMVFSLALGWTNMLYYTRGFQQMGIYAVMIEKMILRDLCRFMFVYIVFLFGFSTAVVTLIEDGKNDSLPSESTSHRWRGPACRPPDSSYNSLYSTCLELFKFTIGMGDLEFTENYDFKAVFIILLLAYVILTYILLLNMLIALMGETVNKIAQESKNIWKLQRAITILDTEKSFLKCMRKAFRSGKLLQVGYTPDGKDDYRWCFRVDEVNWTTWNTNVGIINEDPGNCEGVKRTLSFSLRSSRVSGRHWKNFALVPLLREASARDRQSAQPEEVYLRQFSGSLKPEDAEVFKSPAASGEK
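Fluo-8 calcium influx in TRPV1-expressing cells, kinetic read (ex 480/em 520 nm). Compound added and read 3 min for agonist activity, followed by capsaicin at EC20 final and 2 min further read for enhancement.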
ClpP mod = qHTS Assay for Activators of ClpP | purified B. subtilis ClpP, FRET peptide cleavage, 20 min | Potency, µM (titrated, usually from 57.5 µM), for the others: at the top dose activity change, negative = active | hit rate 1.9% among 340,000 | AID 651965, 2013; active = well fitted falling curve with a large enough effect; inconclusive = small, poorly fitted or top-dose-only effect; inactive = no such curve, though single readings can be large or run the other way; note: potency is the fitted concentration of half-maximal effect; the source files actives as falling curves though it sought activators and does not explain the sign; nearly all actives have a fitted effect of over 65% in size; many hits overshoot -100%
Target sequence (P80244 whole entry, looked up): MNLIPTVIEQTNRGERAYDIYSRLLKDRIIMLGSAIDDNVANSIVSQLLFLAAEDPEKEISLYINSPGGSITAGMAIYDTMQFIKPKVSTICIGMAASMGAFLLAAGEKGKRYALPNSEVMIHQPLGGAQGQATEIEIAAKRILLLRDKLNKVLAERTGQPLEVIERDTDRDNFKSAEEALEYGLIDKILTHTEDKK
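Purified B. subtilis ClpP, 10 microg/mL final in Tris/HCl pH8 with KCl, BSA, glycerol and Tween-20, cleaved an Abz/nitrotyrosine-quenched decapeptide. Fluorescence (ex 320, em 430) was read at 0 and 20 min at room temperature. Delta was normalized to 5.8 microM ADEP and DMSO/no-enzyme controls.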
Sfp inh = inhibitors of Bacillus subtilis Sfp phosphopantetheinyl transferase; Potency, µM, for inactives: max response, negative = inhibition, actives largely listed as inhibitors; Biochemical Sfp PPTase activity, qHTS; AID 1490; hit rate 3.5% among 310,000; active = well fitted inhibition curve with a large enough effect; inconclusive = small, poorly fitted or top-dose-only effect, or another doubt; inactive = no such curve, though single readings can be large or run the other way;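 note: the enzyme is Sfp with the accession as filed and its product quenches rhodamine fluorescence; potency is the fitted concentration of half-maximal effect; 0% = enzyme reaction without inhibitor and -100% = no enzyme wells; top concentration of the series not given in the record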
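Sfp 15 nM + cpd, 15 min RT; start w/ rhodamine-CoA 5 uM, BHQ-2-YbbR 12.5 uM (final); 50 mM Hepes pH 7.6, 10 mM MgCl2, 0.01% NP-40, 0.01% BSA; read 525/598 nm at 0 and 30 min.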
gsp ag = agonists of gsp mutant (McCune-Albright syndrome). gsp mutant cells, cAMP HTRF, 30 min; control for the full effect not named in the record. Potency, µM (top dose mostly 76.9 µM), inactives show at the top dose activation (cAMP increase), most hits filed as activators. hit rate 0.13% among 340,000; active = well fitted activation curve with a large enough effect; inconclusive = small, poorly fitted or top-dose-only effect, or another doubt; inactive = no such curve, though single readings can be large or run the other way; cell line not stated here;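 note: phosphodiesterase inhibitor Ro 20-1724 added with compounds to block cAMP breakdown; potency is the fitted concentration of half-maximal effect; nearly all actives have a fitted effect of over 60% in size; about a fifth of the inactives were tested at one dose only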
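Cells stably selected in G418 were plated at 2000/well, grown 16-24 hr, then given compounds in DMSO with the PDE inhibitor […] (300 uM solution added) for 30 min at 37C; cAMP was read by HTRF.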
Active calls of the source: *; ? = inconclusive; . = no result given; & = joins results of further samples; [ ] = remark or other dose.

SMILES | CtBP-E1A inh | Menin MLL FP FL | gsp antag | TRPV1 potentiator | ClpP mod | Sfp inh | gsp ag
CC(C(=O)NC1CCCC1)N(C(=O)c1snc(C(N)=O)c1N)c1ccc2c(c1)OCCO2 (configuration not stated) | -8 | -2.4 | 5% | 4 | -9.4% | 11% | -8%
O=C(COc1ccc(-c2nnco2)cc1)N1CCOCC1 | -2 | . | 8% | . | -3.6% | . | ?
O=C(Cn1ccc(C(F)(F)F)n1)N/N=C/c1ccc(N2CCOCC2)cc1 | -1 | -2.1 | 7% | -1 | . | 16% | 7%[15.4 µM]
Cc1ccc(OCC(=O)Nc2cnn(CCCC(=O)O)c2)c([N+](=O)[O-])c1 | -18 | -6.3 | 7% | -2 | . | -14% | ?
COc1ccc2cc(C3=CC(=O)CC(C)(C)C3=O)ccc2c1 | -5 | . | . | . | 1.5% | . | -36%[inhibitor]
COC(=O)CCCC1=CC2=CC(=O)C(C)(OC(=O)c3cccs3)C(=O)C2=CN1c1ccccc1 (configuration not stated) | -12 | -9.2[11.7 µM] | 0% | . | -0.3% | 7% | 15%
O=C(NCc1ccccn1)c1ccc(Cl)c(S(=O)(=O)N2CCOCC2)c1 | -1 | -2.6 | 8% | -5 | -0.8% | 6% | 8%[15.4 µM]
CC(=O)c1cccc(NC(=O)CN2C(=O)c3cccnc3Oc3ccc(Cl)cc32)c1 | 0 | . | -20% | -9 | -20% | -6% | 8%
CN(C)c1ccnc2sc(C(=O)c3ccc(Br)cc3)c(N)c12 | -20 | ? | 6% | 11 | . | -30% | -7%[15.4 µM]
Cc1nc2cc(NC(=O)Nc3ccccc3Cl)ccc2n1C | 3 | -0.1 | 4% | -16 | . | -1% | 5%[15.4 µM]
O=c1ccc2cc(S(=O)(=O)N3CCN(c4ccccc4F)CC3)ccc2o1 | 8 | -0.8 | -9% | 19 | -2.2% | 7% | 23%[15.4 µM]
O=C(NC1CCCC1)c1cccc2c1C(=O)c1ccc(/C=C/c3ccccc3)cc1S2(=O)=O | -10 | . | 9% | 6 | -28% | . | -5%
COc1ccc(/C=N\NS(=O)(=O)c2ccc(Br)cc2)cc1COc1ccccc1[N+](=O)[O-] | 0 | 15 | -26% | 16 | 0.8% | 15% | -7%
COc1ccc(CN2CCC(C)CC2)cc1OCc1ccccc1 | -11 | -5.5 | 4% | 9 | -0.6% | 13% | -3%
COc1ccc(C)cc1NC(=O)c1sc2nc(C)nc(N3CCOCC3)c2c1C | 5 | . | -3% | -5 | . | 4% | ?
C[C@@H](NS(=O)(=O)c1cc(Cl)ccc1F)[C@H](O)c1ccccc1 | -5 | . | 10% | . | -1.0% | . | .
CCCn1c(=O)c2[nH]c(-c3ccc(OCC(=O)Nc4ccc(C#N)cc4)cc3)nc2n(CCC)c1=O | -8 | -1.8&8.8 | 4% | 10 | ? | -3% | .
CCS(=O)(=O)Nc1cccc(-c2ccc3nnc(-c4cccnc4)n3n2)c1 | -85* | 0.1 | 3% | 1 | -6.9% | 24% | ?
Cc1c(Cl)cccc1NC(=S)NCCC(C)C | 3 | 4.2 | 2% | -3 | -0.6% | 19% | -30%
COCCNC(=O)Cn1c(=O)n(Cc2ccc(C(=O)NCCc3ccc(OC)c(OC)c3)cc2)c(=O)c2ccccc21 | -1 | -2.4 | 0% | -1 | -24% | 21% | -3%[15.4 µM]
COc1ccc(OC)c(/C=C2\NC(=O)NC2=O)c1 | 1 | -4.1 | 0% | -8 | -3.7% | 15% | ?
COc1cc(OC)cc(-c2c(-c3cccs3)c3cc(-c4ccn[nH]4)ccc3n2C)c1 | . | . | -3% | 0 | 4.4% | . | -3%
COc1ccc(-c2noc(C3CCCN(C(=O)c4cccc(F)c4)C3)n2)cc1 (configuration not stated) | -13 | -1.6 | -19% | -1 | . | 16% | -25%
Cc1ccc([C@@H]2C[C@H]3[C@@H](CN2S(=O)(=O)c2ccc(C)cc2)C(=O)C[C@@H](c2cccc(Cl)c2)N3S(=O)(=O)c2ccc(C)cc2)cc1 | 0 | . | . | . | 0.5% | . | ?
Cc1ccc(C(=O)Nc2ccc(N3CCN(S(C)(=O)=O)CC3)cc2)cc1 | 3 | 3.6 | 1% | -5 | -4.6% | 16% | -26%
O=C(NCCc1ccccc1)C1CCCN1S(=O)(=O)c1ccc(Cl)cc1 (configuration not stated) | -6 | -3.4 | . | -4 | . | 6% | -6%[15.4 µM]
COc1ccc(-c2nc3scc(-c4ccccc4)n3n2)cc1 | -1 | 1.5 | -6% | -27 | -7.8% | -5% | 1%
COc1ccc(/C=C/C(=O)O)cc1S(=O)(=O)N1CCC(C)CC1 | -14 | 7.0 | -6% | 5 | -3.2% | 12% | ?
Cc1ccc(NS(=O)(=O)c2ccc3c(c2)NC(=O)CO3)cc1C | . | . | -2% | -21 | 0.9% | 13% | -14%
O=[N+]([O-])c1cccc(CSc2nc3ccccc3[nH]2)c1 | -7 | 1.7 | 5% | 1 | -3.4% | 5% | -69%[inhibitor]

Reprinted from the part before: 2 entries, followed by the next part.
SMILES | CtBP-E1A inh | Menin MLL FP FL | gsp antag | TRPV1 potentiator | ClpP mod | Sfp inh | gsp ag
Cc1ccc(NS(=O)(=O)c2ccc3c(c2)NC(=O)CO3)cc1C | . | . | -2% | -21 | 0.9% | 13% | -14%
O=[N+]([O-])c1cccc(CSc2nc3ccccc3[nH]2)c1 | -7 | 1.7 | 5% | 1 | -3.4% | 5% | -69%[inhibitor]
Cc1c(N(C)S(=O)(=O)c2ccc(Cl)c(C(=O)N3CCC(C(N)=O)CC3)c2)c(=O)n(-c2ccccc2)n1C | -10 | . | 7% | ? | . | . | 19%[15.4 µM]
O=C(COc1ccccc1Cl)NC(=O)NC1CCCC1 | -3 | 2.4 | -11% | 1 | -1.1% | 5% | -24%
S=c1[nH]nc(-c2cccs2)n1/N=C/c1cccs1 | 0 | -2.6 | . | 14 | . | -5% | 16%[15.4 µM]
CNC(=O)COC(=O)/C=C/c1ccc(F)cc1 | -2 | 0.0 | 4% | -13 | . | 20% | 3%[15.4 µM]
CCCCC1CC1C(=O)Nc1ccc(OC)c(OC)c1 (configuration not stated) | -11 | 1.9 | -6% | 10 | -2.4% | -10% | 1%
O=C1CC(c2ccccc2)CN1C(=O)c1ccccc1 (configuration not stated) | 4 | 0.4 | 4%[15.4 µM] | -3 | -2.8% | 12% | 7%
C=CCN(c1cccc(C(F)(F)F)c1)S(=O)(=O)c1cccc(C(=O)OCC(=O)Nc2ccccc2)c1 | 16 | 7.3 | -17% | -7 | 0.6% | 29% | 1%[15.4 µM]
CCOC(=O)Nc1c2ccccc2nc2ccccc12 | . | -9.9 | ? | -29 | 4.7% | 10% | 12%
CC(C)CCNC(=O)c1ccc(-n2cnc3cccnc32)cc1 | . | 0.8 | -9% | 11 | -2.7% | 8% | 8%
Cc1cc(OC(=O)c2cc(Cl)nc3ccccc23)ccc1Cl | 1 | 0.0 | 9% | 2 | 0.5% | 3% | -3%
CC(C)C(=O)N(Cc1ccccc1)c1ccccn1 | 56 | 3.5 | -6% | -1 | 0.4% | 0% | 6%
O=C(CCc1nnc2n(Cc3ccc(Cl)cc3)c(=O)c3ccccc3n12)NCCN1CCCC1 | -5 | -2.1 | 6% | 2 | . | 4% | 27%
O=C(O)c1cn(-c2ccccc2)nc1-c1ccc(Cl)cc1 | 53 | . | ? | . | -13% | . | ?
CCOC(=O)Cn1c(C)cc(=O)c2ccccc21 | 3 | 2.3 | -21% | -6 | -0.6% | 21% | -27%
O=C(COc1ccccc1[N+](=O)[O-])Nc1ccc(Br)cc1 | 0 | -2.2 | -6% | 9 | 0.4% | 3% | -1%
CCN(Cc1cc(=O)n2ccsc2n1)Cc1nc2ccccc2c(=O)[nH]1 | -22 | 3.9 | 3% | 0 | . | ? | -5%
CC(C)CC(c1nnnn1Cc1ccc(F)cc1)N1CCC(C(N)=O)CC1 (configuration not stated) | 7 | -1.6 | 7% | -2 | . | 19% | 10%[15.4 µM]
C=CCCN([C@@H](C)C(=O)OC)S(=O)(=O)c1ccccc1Br | -4 | 0.0 | 8% | -4 | -2.9% | -1% | -8%
Cc1cc(C)cc(C(=O)O/N=C(\N)c2ccc(Br)cc2)c1 | -2 | -0.7 | 6% | -8 | -0.8% | -13% | -5%
S=C1SCN(Cc2ccccn2)CN1Cc1ccco1 | ? | ? | -5% | -30 | 2.2% | 10µM* | ?
O=C(Cc1ccccc1)Nc1ccc(NC(=O)c2cccnc2)cc1 | 6 | -4.0 | 1% | 11 | . | -2% | -90%[inhibitor]
O=C(Nc1ccc(C(F)(F)F)cc1)c1ccc2ncsc2c1 | -10 | 6.5 | 8% | 9 | -1.6% | 79µM* | ?
O=C(Cn1c(=O)n(CC2CCCO2)c(=O)c2ccccc21)N1CCN(c2ccccc2)CC1 (configuration not stated) | -2 | 1.3 | -12% | 2 | -2.0% | 24% | -1%
Cc1cccc(N(CC(=O)NC(C)(C)C)C(=O)CNC(=O)c2cccs2)c1C | 8 | 0.1 | 18% | ? | -0.8% | 26% | -5%
CCOC(=O)Cc1cnc(NC(=O)CSc2nc(N)cc(=O)[nH]2)s1 | 2 | 3.1 | 2% | 18 | . | 14% | -1%[15.4 µM]
Cc1cc(C)n2c(SCC(=O)N(CC(C)C)c3c(N)n(CC(C)C)c(=O)[nH]c3=O)nnc2n1 | 5 | -1.7 | 10% | 14 | -0.2% | ? | 3%[15.4 µM]
CC(C)CCNC(=O)NC(=O)CSc1nnc(-c2ccccc2F)n1N | -8 | 4.7 | -3% | -11 | -1.0% | 5% | -2%
COc1ccc(OCCSc2nnnn2C2CCCCC2)cc1 | 17 | -0.5 | -1% | 7 | -1.2% | 1% | 14%
CCOC(=O)Cc1csc(NC(=O)CSc2nnc(-c3ccc(F)cc3)o2)n1 | 7 | -1.6 | -5% | 28 | 0.6% | 15% | 1%
NC(=O)CC12CC3CC(C1)CC(CC(N)=O)(C3)C2 | 4 | 0.1 | -7% | 18 | 0.5% | 15% | -29%
COc1ccc(-n2nc(C(=O)O)nc2-c2ccccc2)cc1 | -1 | -0.5 | 0% | 0 | -2.8% | 24% | 19%

Screening results as filed in PubChem BioAssay.
